Ba CapD inh: CapD enzyme inhibition; z-score (concentration not given with the values); actives 0.23% (n = 140,000); purified CapD enzyme, fluorescence intensity read-out; active compounds read low; some hits fall short of the stated cut;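 active = z-score under -4 in either of two replicates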;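 note: stock transfer was 100 nL into about 40 µL; score is relative to mean and spread of the plate; one replicate is shown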
AID504770: growth inhibitors of E. coli YBA685 in a screen for V. cholerae RctB (chromosome II replication) inhibitors. z-score (test concentration not listed). E. coli YBA685 rctB-dependent plasmid, OD600 growth, 3 h; active compounds read low. actives 0.27% (n = 130,000);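 active = z-score under -2 on both plates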;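 note: wells of about 30 µL received 100 nL stock; score is relative to mean and SD of the test wells; the first replicate is given; strong numbers were not always called active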
* = called active by the depositor; nt = no result given.

| SMILES | Ba CapD inh | AID504770 |
| --- | --- | --- |
| Cc1cccc(NC(=O)c2cc3ccc(O)cc3oc2=Nc2ccc(C(=O)O)cc2)c1 | 0.255 | nt |
| O=c1[nH]c(NCCO)c(I)c(=O)[nH]1 | -1.43 | -1.2 |
| COc1ccc(-c2oc(NC(=O)COC(=O)C(C)(C)C)c(C#N)c2-c2ccc(OC)cc2)cc1 | nt | -0.7 |
| O=C(Cc1cccc2ccccc12)NCCCN1CCOCC1 | -0.21 | -0.25 |
| Cc1nn(-c2ccccc2)c(N2CCCC2)c1C=Nc1ccc2c(c1)OCO2 | nt | 0.65 |
| NC(=O)C1CCN(C(=O)Nc2csc3ccccc23)CC1 | 0.11 | -0.55 |
| O=C(Nc1ccc(I)cc1)c1ccccc1C(=O)c1ccccc1 | 15 | -0.6 |
| Cc1nc(CCNC(=O)Cc2ccccc2)cs1 | 5.54 | -0.9 |
| Cc1cc(-c2ccco2)n(-c2ccccc2)n1 | 3.6 | -1 |
| O=C(NCc1ccco1)c1c2c(nc3ccccc13)-c1ccccc1CC2 | nt | -1.5 |
| CC1=C(C(=O)Nc2ccccc2)C(c2ccncc2)C(C#N)=C(S)N1 (stereo not drawn) | -1.56 | 0.1 |
| O=C(Cn1cncn1)N/N=C/c1ccc(O)cc1O | nt | -1 |
| CS(=O)(=O)c1sc(Cl)c2c1C(=O)CCC2 | 0.085 | nt |
| CCC(C)SCC(=O)N1CCc2ccccc21 (stereo not drawn) | 0.1 | -1.75 |
| C/C(=N\NC(=O)c1nc(Cl)c(Cl)c(N)c1Cl)c1cc(O)ccc1O | nt | 1.35 |
| O=C(CN1C2=NCCN2c2ccccc21)c1cccc(Br)c1 | -0.695 | nt |
| COc1nc(N(C)C)nc(N(C#N)S(=O)(=O)c2ccc(C)cc2)n1 | 0.085 | -1.25 |
| O=C(CS(=O)(=O)c1c[nH]c2ccccc12)Nc1ccccc1 | -0.52 | -0.35 |
| CC(C)(C)OC(=O)N1Cc2[nH]cnc2CC1C(=O)O (stereo not drawn) | nt | 0.95 |
| CCCSc1cc(=O)n(-c2ccccc2)nc1C(=O)Nc1ccc(Cl)cc1 | -0.24 | nt |
| COc1ccc(-c2[nH]ncc2CN2CCN(C)CC2)cc1 | -0.075 | -0.8 |
| S=C(SCc1cn2cccnc2n1)N1CCCC1 | nt | -0.5 |
| CCOC(=O)COc1ccc(/C=C2/C(=O)NC(=S)N(c3ccc(Cl)cc3)C2=O)cc1OC | -0.735 | nt |
| COc1ccc(NC(=O)Cn2nnc(-c3ccc(S(C)(=O)=O)cc3)n2)cc1 | nt | 0.05 |
| O=C(c1ccc(S(=O)(=O)NC2CCCc3ccccc32)s1)N1CCCC1 (stereo not drawn) | 0.57 | -0.4 |
| O=c1cc(CSc2nnc3sc4ccccc4n23)c2ccc(Br)cc2o1 | nt | 0 |
| CCOC(=O)N1CCN(C(=O)CCc2ccc(S(=O)(=O)NC3CCCCC3)cc2)CC1 | -0.02 | -0.8 |
| Cc1cc(COC(=O)c2cc(S(=O)(=O)NC3CC3)ccc2Br)no1 | nt | -0.55 |
| N=C(N)N1CCN(CC(O)COc2ccccc2)CC1 (stereo not drawn) | nt | -0.05 |
| Cc1ccc(N2CC(NC(=O)N3CCC(C(N)=O)CC3)CC2=O)cc1 (stereo not drawn) | nt | -0.25 |
| CCSC1=C(C#N)C(C)(C)C(C#N)C(=O)N1 (stereo not drawn) | nt | 1.65 |
| Cc1cc(F)ccc1NC(=O)c1cc2sccc2n1Cc1ccc(Cl)cc1 | 0.485 | 0.2 |
| CCCCCC1CC(=O)N(Cc2ccccc2)C(=O)N1 (stereo not drawn) | -0.485 | 0.4 |
| COc1ccc(NC(=O)c2cccnc2SCc2ccccc2C)cc1OC | -0.75 | nt |
| O=C(CSCc1nc(-c2ccccc2)cs1)NNC(=O)OCc1cccc(OCc2ccccc2)c1 | -0.62 | nt |
| [O-]/[N+](=C\c1cccc(Br)c1)c1ccccc1 | -1.44 | -0.6 |
| CCOC(=O)COc1ccccc1C1Nc2ccccc2-c2nnc(SC)nc2O1 (stereo not drawn) | 0.04 | nt |
| NC(=S)Cc1ccc(Cl)cc1 | 0.33 | nt |
| C=CCn1c(CNC(=O)Cc2ccccc2)nc2ccccc21 | 0.595 | -0.05 |
| CC(C(=O)Nc1ccc(F)cc1F)n1c(C(F)(F)F)nc2ccccc21 (stereo not drawn) | 0.225 | nt |

Part of the list above, field by field.
mol: CCOC(=O)N1CCN(C(=O)CCc2ccc(S(=O)(=O)NC3CCCCC3)cc2)CC1
  Ba CapD inh = -0.02
  AID504770 = -0.8
mol: Cc1cc(COC(=O)c2cc(S(=O)(=O)NC3CC3)ccc2Br)no1
  Ba CapD inh = nt
  AID504770 = -0.55
mol: N=C(N)N1CCN(CC(O)COc2ccccc2)CC1 (stereo not drawn)
  Ba CapD inh = nt
  AID504770 = -0.05

Further results follow.
| SMILES | Ba CapD inh | AID504770 |
| --- | --- | --- |
| Cn1/c(=N/N)sc2ccccc21 | -1.9 | 2.1 |
| N#CC1(C#N)[C@H](c2ccoc2)[C@@H](C(=O)Oc2ccccc2)N2c3ccccc3C=C[C@@H]21 | 1.21 | -1.2 |
| CSc1nc2ccc(NC(=O)c3cccc(Cl)c3)cc2s1 | -1.31 | -0.25 |
| CCNc1ncnc2c1nnn2CC | nt | 1.9 |
| COc1ccc(-n2nnc3c(sc4nc(C)cc(C)c43)c2=O)cc1 | -0.52 | 0.65 |
| Cc1[nH]n(C)c(=O)c1N=Nc1ccc(Cl)cc1 | -2.33 | nt |
| O=C(NC(CO)c1ccccc1)c1ccc(Cl)cc1 (stereo not drawn) | -0.33 | 0.45 |
| O=C(O)c1ccc(NS(=O)(=O)c2cc3c4c(cccc4c2)C(=O)NC3=O)cc1 | 0.7 | 0.5 |
| CCOC(=O)c1cnc2ccc(Cl)cc2c1NCCN(C)C | 0.18 | -2 |
| C=CCn1c(SCC(=O)NCc2ccccc2)nnc1-c1ccc2ncccc2c1 | 0.1 | -0.55 |
| CCCCCCC(CC[n+]1c(/C=C/C=C2N(CC)c3cc(Cl)c(Cl)cc3N2CC)n(CC)c2cc(Cl)c(Cl)cc21)S(=O)(=O)[O-] (stereo not drawn) | 0.3 | nt |
| COc1cc(NC(=O)c2cnn3c2NC(c2cc(OC)c(OC)c(OC)c2)CC3C(F)(F)F)cc([N+](=O)[O-])c1 (stereo not drawn) | 0.55 | nt |
| O=C(C1CC1)N1c2ccccc2Sc2ccc(C(F)(F)F)cc21 | 0.135 | nt |
| CC(C)C(=O)OCC(=O)Nc1ccccc1C(=O)Nc1ccc2c(c1)OCO2 | nt | -1.65 |
| CCN(CC)CCNc1ccc2nnc(-c3ccc(F)cc3)n2n1 | 1.54 | 0.3 |
| CCOC(=O)c1c(C)nc2c(c1-c1ccccc1)C(=O)CC(C)(C)C2 | -0.285 | -0.8 |
| CN1CCN(c2ncnc3nc[nH]c23)CC1 | nt | -0.25 |
| Cc1ccc(S(=O)(=O)NCc2nnc(NC(=O)CCCOc3ccc(Cl)cc3Cl)s2)cc1 | -1.07 | nt |
| O=C(NNC(=O)c1cc(-c2ccccc2)nc2ccccc12)c1cccc(F)c1 | 1.94 | nt |
| N#C/C(=C(/O)c1ccco1)c1ccccn1 | nt | 0.25 |

A stretch of the results above, as a working copy:
| SMILES | Ba CapD inh | AID504770 |
| --- | --- | --- |
| COc1ccc(-c2oc(NC(=O)COC(=O)C(C)(C)C)c(C#N)c2-c2ccc(OC)cc2)cc1 | nt | -0.7 |
| O=C(Cc1cccc2ccccc12)NCCCN1CCOCC1 | -0.21 | -0.25 |
| Cc1nn(-c2ccccc2)c(N2CCCC2)c1C=Nc1ccc2c(c1)OCO2 | nt | 0.65 |

The listing continues.
| SMILES | Ba CapD inh | AID504770 |
| --- | --- | --- |
| CC(C)(C)c1ccc(C(=O)c2c[nH]c(C(=O)NCCCn3ccnc3)c2)cc1 | -0.535 | nt |
| O=C(CSc1ncccn1)N1CCN(C(=O)CSc2ncccn2)CC1 | -0.76 | nt |
| COc1ccc2cc3cc(C(=O)N4CCN(Cc5ccccc5)CC4)oc3nc2c1 | 29.3 | -0.9 |
| O=C(NNC(=O)c1cccc(C(F)(F)F)c1)c1ccncc1 | 0.18 | nt |
| CCC(C)NC(=O)c1ccc2nc(-c3cccs3)c(-c3cccs3)nc2c1 (stereo not drawn) | 0.125 | 0.05 |
| CC(N)Cc1ccc(O)cc1 (stereo not drawn) | nt | 0.1 |
| CN(C)c1ccc(C=NCC2CCCN3CCCCC23)cc1 (stereo not drawn) | -2.78 | 0.9 |
| Cc1cc(Cl)cc2sc(NC(=O)CCCCl)nc12 | 0.355 | 0.9 |
| O=C(CSc1nc2c(c(=O)n1-c1ccccc1)SCC2)c1ccccc1 | 0.705 | 0.1 |
| CCn1cnc2cc(NCc3cccc(OC)c3)ccc21 | 53.6 | -0.35 |
| COc1cc2c(cc1NC(=O)C(C)OC(=O)c1n[nH]c(=O)c3ccccc13)oc1ccccc12 (stereo not drawn) | nt | 2.5 |
| O=C(CCSc1nc2ccccc2s1)Nc1ccccc1Br | 0.48 | nt |
| S=c1nc[nH]c2c1nnn2Cc1ccc(Cl)cc1 | 1.38 | 0.5 |
| CN1CCN(CC(=O)Nc2ccc(C(=O)NCC3CCCO3)cc2)CC1 (stereo not drawn) | nt | 2 |
| CCCc1nc2c(o1)NC(N)=C(C#N)C2c1cnn(-c2ccccc2)c1C (stereo not drawn) | 0.345 | 1.45 |
| COc1ccc(OCCOCCn2c(-c3ccc(Cl)cc3)nc3ccccc3c2=O)cc1 | -0.005 | nt |
| COc1cc(C2C(C(=O)OCCOc3ccccc3)=C(C)NC3=C2C(=O)CC(C)(C)C3)cc(OC)c1OC (stereo not drawn) | 18.6 | nt |
| O=C(O)c1ccccc1C(=O)Nc1cccc2ncccc12 | -0.52 | -0.8 |
| CCN1C(=O)N(c2ccc(Cl)cc2)C(n2oc(=O)n(-c3ccc(Cl)cc3)c2=O)C1(C)C (stereo not drawn) | 5.86 | nt |
| N=c1c(S(=O)(=O)c2ccccc2)cc2c(=O)n3ccccc3nc2n1Cc1ccco1 | 22.7 | -1.35 |
| Cc1c(-c2ccn[nH]2)cnn1-c1c(Cl)cc(Cl)cc1Cl | 0.35 | 1.75 |
| CC(=O)NC12CC3CC(C1)CC(C(=O)OCC(=O)c1ccc4c(c1)OCCO4)(C3)C2 | nt | -0.5 |
| CC1=C(C(=O)Nc2ccccc2)C(c2ccccc2)n2c(s/c(=C/c3ccc(C)o3)c2=O)=N1 (stereo not drawn) | -0.27 | 0.95 |
| Cc1occc1C(=O)Nc1cccc(/C=C/C(=O)O)c1 | -0.46 | -0.7 |
| O=S(=O)(c1ccc(Br)cc1)N1C=CC(C(F)(F)F)=NCC1 | -1.06 | nt |
| Cc1c(CC(N)=O)c(=O)oc2cc(O)c(Cl)cc12 | 106 | 0.15 |
| Cc1cc(Cl)cc(Br)c1OCC(O)CNCc1ccccc1 (stereo not drawn) | -0.22 | -0.55 |
| CCOC(=O)c1c(NC(=O)COc2ccccc2)sc(C(=O)Nc2cc(C(F)(F)F)ccc2Cl)c1C | 0.745 | nt |
| CCOC(=O)c1ccc2nc(C(F)(F)F)cc(N3CC(C)CC(C)C3)c2c1 (stereo not drawn) | 5.83 | -0.7 |
| CC1(C)CC(=O)C2=C(C1)OC1=C(C(=O)CC(C)(C)C1)C2c1ccc(-c2nnc(N)s2)cc1 | 0.21 | nt |
| N#Cc1ccc(C=Nc2ccc(Cl)cc2)cc1 | -0.405 | nt |
| Cn1c(=O)cc(O)c2ccccc21 | 1.4 | nt |
| O=S(=O)(Nc1cccc(-c2nnco2)c1)c1ccc(Cl)cc1 | -0.66 | -0.7 |
| COc1ccc(/C(O)=C2\C(=O)C(=O)N(c3ccccn3)C2c2cccc(Cl)c2)cc1 (stereo not drawn) | -0.595 | nt |
| Fc1cccc(-c2nc(-c3ccc4c(c3)sc3ccccc34)c(-c3ccccc3)[nH]2)c1 | -0.325 | nt |
| Cc1ccsc1C=Nc1ccc(OC(F)(F)F)cc1 | -0.55 | -0.3 |
| COc1cc2c(cc1OC)C(Nc1ccc(Cl)cc1)=NC(C)(C)C2 | -0.02 | nt |
| Cn1c(SCC(=O)NC2CCCC2)nnc1-c1c[nH]c2ccccc12 | -0.565 | -0.05 |
| CCOC(=O)C1=C(C)N=c2s/c(=C\c3ccc(-c4ccc(C(=O)O)cc4)o3)c(=O)n2C1c1ccc2c(c1)OCO2 (stereo not drawn) | 0.03 | nt |
| Cc1ccc(Cn2nnc3c(=O)[nH]c(C4CCN(S(=O)(=O)c5ccc(S(=O)(=O)NC6CC6)cc5)CC4)nc32)cc1 | nt | 0.55 |
| CCn1nc(C)c(Oc2ccccc2O)c1C | nt | 1.6 |
| Cc1n[nH]c(=S)n1CC(=O)n1c2c(c3ccccc31)CCCC2 | nt | 0.3 |
| Cc1ccc2[nH]c(=O)c(CN(CC3CCCO3)C(=S)NCCCN3CCOCC3)cc2c1 (stereo not drawn) | nt | 1.05 |
| COC(=O)CSCc1csc(-c2ccc(OC)c(OC)c2)n1 | nt | -1.05 |
| COc1ccc(/C(O)=C2/C(=O)C(=O)NC2c2ccc(OC)cc2OC)cc1 (stereo not drawn) | 12 | nt |
| Cc1ccc(C)c(NC(=O)CN(C)C(=O)C2=NNC(=O)CC2)c1 | nt | -0.45 |
| CC1(C)c2ssc(=S)c2-c2ccccc2N1C(=O)C(Cc1ccccc1)N1C(=O)c2ccccc2C1=O (stereo not drawn) | -0.33 | nt |
| N#Cc1c2c(c(NCCN3CCOCC3)n3c1nc1ccccc13)CCCC2 | 3.04 | -0.2 |
| NCC(c1ccc(F)cc1)N1CCOCC1 (stereo not drawn) | nt | -0.5 |
| CCN(CC)c1ccc(C(=O)N/N=C/c2cc(C)n(-c3cccc(C(F)(F)F)c3)c2C)cc1 | 4.07 | nt |
| CCC(=O)N1CCN(c2ccc(NC(=S)NC(=O)c3cc4ccccc4o3)cc2Cl)CC1 | -0.075 | 0.7 |
| CC1CCN(C(=O)CSc2ncnc3c2nnn3Cc2ccc(F)cc2)CC1 | nt | -1.3 |
| COC(=O)c1ccc(COC(=O)c2ccc(O)cc2)o1 | nt | -0.35 |
| O=c1[nH]c(O)c(C=Nc2cc(C(F)(F)F)cc(C(F)(F)F)c2)c(=O)[nH]1 | 0.265 | nt |
